Screening data from PubChem BioAssay.
TRPML1 blocker = qHTS for Inhibitors of the Human Mucolipin Transient Receptor Potential 1 (TRPML1); TRPML1-inducible cells, Ca2+ dye fluorescence, FDSS; stronger effect = lower value; inhibition of EC80 agonist-evoked calcium signal; AID 624415, 2012; Mucolipin-1 (Homo sapiens), Q9GZU1; hit rate 0.02% among 390,000; activity change, negative = inhibition, % (test concentration not listed); in the data active means activity change below about -50%; inconclusive means about -30% to -50%; inactive means above about -30%;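 note: stimulus is agonist 54-4 at its EC80 concentration; % is set by controls: 0 for no effect and ±100 for the full control effect; compound concentration not given in the record; the text of the record puts the active cut at -80%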
Target sequence (Q9GZU1 whole entry, looked up): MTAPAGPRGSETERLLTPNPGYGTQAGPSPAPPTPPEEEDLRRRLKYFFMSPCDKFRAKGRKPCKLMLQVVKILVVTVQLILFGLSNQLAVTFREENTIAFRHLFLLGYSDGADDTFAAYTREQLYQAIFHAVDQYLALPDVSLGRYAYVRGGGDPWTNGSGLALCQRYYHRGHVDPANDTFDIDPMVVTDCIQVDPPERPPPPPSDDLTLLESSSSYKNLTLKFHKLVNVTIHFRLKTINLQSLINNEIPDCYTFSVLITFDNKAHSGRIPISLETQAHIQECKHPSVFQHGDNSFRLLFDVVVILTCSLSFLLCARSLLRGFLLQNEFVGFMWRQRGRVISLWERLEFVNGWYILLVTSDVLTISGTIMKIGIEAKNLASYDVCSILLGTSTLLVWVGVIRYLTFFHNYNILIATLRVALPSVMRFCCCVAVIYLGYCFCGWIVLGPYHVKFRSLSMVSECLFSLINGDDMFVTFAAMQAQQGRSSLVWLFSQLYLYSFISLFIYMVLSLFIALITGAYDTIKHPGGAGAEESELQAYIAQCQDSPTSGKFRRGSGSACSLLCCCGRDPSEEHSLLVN
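Tet-induced TRPML1-DL cells loaded with Ca8 no-wash calcium dye were read kinetically on FDSS. Compound addition was followed by EC80 agonist 54-4 (4 uM final); inhibition was read over 110 s.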
ClpP mod = qHTS Assay for Activators of ClpP | hit rate 1.9% among 340,000 | purified B. subtilis ClpP, FRET peptide cleavage, 20 min | Potency, µM (top dose mostly 57.5 µM), for inactives: at the highest dose activity change, negative = active | AID 651965, 2013; active = well fitted falling curve with a large enough effect; inconclusive = small, poorly fitted or top-dose-only effect; inactive = no such curve, though single readings can be large or run the other way; note: potency is the fitted concentration of half-maximal effect; the source files actives as falling curves though it sought activators and does not explain the sign; nearly all actives have a fitted effect of over 65% in size; many hits overshoot -100%
Target sequence (P80244 whole entry, looked up): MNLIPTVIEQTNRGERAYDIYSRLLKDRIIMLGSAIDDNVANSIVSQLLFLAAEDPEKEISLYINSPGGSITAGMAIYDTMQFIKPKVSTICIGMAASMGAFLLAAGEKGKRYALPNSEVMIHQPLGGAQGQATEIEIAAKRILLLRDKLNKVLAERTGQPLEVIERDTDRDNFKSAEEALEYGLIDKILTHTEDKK
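ClpP 10 microg/mL final, pH 8 Tris/KCl buffer with BSA, glycerol, Tween-20; compound pinned in; FRET-FV substrate; RT 20 min; Ex320/Em430; ΔFRET vs ADEP 5.8 microM, DMSO, no enzyme.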
TRPML1 agonist = qHTS for Agonists of the Human Mucolipin Transient Receptor Potential 1 (TRPML1) | hit rate 0.12% among 410,000 | TRPML1-expressing cells, Ca2+ dye fluorescence, FDSS; host cell line not named in the record; reference of the full effect not given here | Mucolipin-1 (Homo sapiens), Q9GZU1 | AID 624414, 2012 | activation, % (test concentration not listed); in the data active = activation above about 50%; inconclusive = about 30% to 50%; inactive = below about 30%; note: 0% is about no effect; the text of the record puts the active cut at 80%
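Calcium fluorescence on an FDSS kinetic reader gave the read-out. Tet-induced TRPML1-DL cells were plated overnight, dye-loaded (Ca8 with quencher, 45-90 min, room temperature, dark), then read 110 s after compound addition, and again 110 s after 4uM final 54-4 (EC80).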
gsp agonist = qHTS for Agonist of gsp, the Etiologic Mutation Responsible for Fibrous Dysplasia/McCune-Albright Syndrome: qHTS; Potency, µM (top dose mostly 76.9 µM), inactives show at the highest dose activation (cAMP increase), most hits filed as activators; hit rate 0.13% among 340,000; gsp mutant cells, cAMP HTRF, 30 min; control for the full effect not named in the record; active = well fitted activation curve with a large enough effect; inconclusive = small, poorly fitted or top-dose-only effect, or another doubt; inactive = no such curve, though single readings can be large or run the other way; cell line not stated here;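 note: phosphodiesterase inhibitor Ro 20-1724 added with compounds to block cAMP breakdown; potency is the fitted concentration of half-maximal effect; nearly all actives have a fitted effect of over 60% in size; about a fifth of the inactives were tested at one dose only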
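Cells in DMEM/10% FBS with G418 were pretreated with compounds in DMSO plus […] (300 uM stock) for 30 min at 37C. cAMP was measured by HTRF (cAMP-d2 plus anti-cAMP antibody-K) after 30 min at room temperature.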
gsp antagonist = qHTS for Antagonists of gsp, the Etiologic Mutation Responsible for Fibrous Dysplasia/McCune-Albright Syndrome: qHTS | gsp-mutant cells, cAMP HTRF, 30 min; control for the full effect not named in the record | hit rate 0.4% among 340,000 | Potency, µM (series often up to 76.9 µM), inactives show top-dose activity change, negative = inhibition, usual class: inhibitors; active = falling curve of any shape with a large fitted effect; inconclusive = falling curve, mostly with a smaller effect; inactive = flat or rising curve; cell line not stated here;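 note: intracellular cAMP measured with PDE inhibitor Ro 20-1724 present during compound exposure; potency is the fitted concentration of half-maximal effect; % is set by controls: 0 for no effect and ±100 for the full control effect; nearly all actives have a fitted effect of over 65% in size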
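HTRF cAMP measurement after 30 min RT detection following 30 min, 37C compound treatment alongside […] (added as 300 uM solution) in G418-selected cells seeded at 2000/well and grown 16–24 h.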
Menin MLL FP FL = qHTS Assay for Inhibitors Targeting the Menin-MLL Interaction in MLL Related Leukemias: Competition With Fluorescein Labeled MLL-derived Peptide | Fluorescence polarization, fluorescein-MLL peptide displacement from menin | AID 1766, 2009 | 290,000 tested, under 10 active | FP activity change, % at 61.4 µM; inconclusive = falling polarisation curve, or a change in total fluorescence; inactive = total fluorescence flat and polarisation flat or rising; no compound was filed as active; the % refers to the polarisation; negative = inhibition;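 note: % of control where 0% means no effect; inhibitors lower the polarisation; unlabelled MLL peptide was the positive control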
Starred values were filed as active, the others as inactive; & = joins results of further samples; [ ] = dose if it differs, or a comment. Rows were taken by chance; 2.1% or so of the library scored in one or more.

`CC(=O)c1ccc(NS(=O)(=O)c2cccc(S(=O)(=O)c3ccc(Cl)cc3)c2)cc1` gave TRPML1 blocker -14.6, ClpP mod -6.5% and TRPML1 agonist 3.4.
N=c1oc2ccc3ccccc3c2cc1-c1nc(-c2ccccc2)cs1 was read as TRPML1 blocker -12.5, ClpP mod 0.4%, TRPML1 agonist 4.4, gsp agonist 7.2%, gsp antagonist 8.8% and Menin MLL FP FL 2.7.
COc1ccc(C(=O)OCn2nnc3ccccc3c2=O)cc1 was read as TRPML1 blocker -12.9, TRPML1 agonist -0.2, gsp agonist -16.4%[15.4 µM], gsp antagonist 14.5% and Menin MLL FP FL 1.7.
For CCN(CC)C(=O)c1ccc(O)c(OC)c1 the results were TRPML1 blocker -5.8, ClpP mod 0.0%, TRPML1 agonist 0.5, gsp antagonist -3.4% and Menin MLL FP FL -4.3.
COc1ccc(NC(=O)CSc2ccccc2)c(OC)c1 was read as TRPML1 blocker 4.6, ClpP mod inconclusive, TRPML1 agonist 0.1, gsp agonist 0.8%, gsp antagonist -8.7% and Menin MLL FP FL 2.1.
`Cc1c(CCOC(=O)C2C3CC4CC(C3)CC2C4)sc[n+]1CC(=O)c1ccc(Br)cc1` (configuration not stated) gave TRPML1 blocker -13.4&-7.1, ClpP mod 0.4%&0.7%, TRPML1 agonist 1.2&-1.0, gsp agonist 16.1%&-1.2%, gsp antagonist 12.3%&10.6% and Menin MLL FP FL -2.0.
Screening CS(=O)(=O)c1ccccc1C(=O)Nc1ccc(-c2nc3ccccc3o2)cc1 returned TRPML1 blocker 1.2, ClpP mod -2.3%, TRPML1 agonist 0.6, gsp agonist -9.4%, gsp antagonist -26.4% and Menin MLL FP FL 0.3.
For CC(C)CNC(=O)C(=O)NNC(=O)C1CCCCC1 the results were TRPML1 blocker 3.8, ClpP mod 1.5%, TRPML1 agonist -0.1, gsp agonist -4.8%, gsp antagonist -11.5% and Menin MLL FP FL 0.0.
`Cc1ccccc1C(=O)Nc1cc(NC(=O)c2ccccc2C)cc(C(=O)O)c1` gave TRPML1 blocker -1.2, ClpP mod 0.0%, TRPML1 agonist 0.7, gsp agonist -9.6%[15.4 µM], gsp antagonist 8.3% and Menin MLL FP FL -1.9.
`CCN(CC)S(=O)(=O)c1ccc2oc(SCC(=O)NC3CC3)nc2c1` gave TRPML1 blocker -7.3, ClpP mod 0.9%, TRPML1 agonist -0.7, gsp agonist -4.5%[15.4 µM] and gsp antagonist 7.6%.
`CN1C(=O)Cc2cc(S(=O)(=O)NCCc3ccc(Cl)cc3)ccc21` gave TRPML1 blocker 25.9&5.4, ClpP mod 1.1%, TRPML1 agonist 0.6&0.1, gsp agonist -6.8%, gsp antagonist -5.4% and Menin MLL FP FL 5.1.
Screening CCC(=O)N(CC)Cc1cc(=O)[nH]c2ccccc12 returned TRPML1 blocker -10.1, ClpP mod 0.9%, TRPML1 agonist -0.9, gsp agonist 7.3%[15.4 µM], gsp antagonist 9.4% and Menin MLL FP FL -1.4.
For CCOC(=O)c1c(C)oc2nc(C)nc(N3CCN(c4ccc(C(C)=O)cc4)CC3)c12 the results were TRPML1 blocker 4.6, ClpP mod -1.6% and TRPML1 agonist -0.4.
For CS(=O)(=O)N1CCN(S(=O)(=O)c2ccccc2[N+](=O)[O-])CC1 the results were TRPML1 blocker -4.2, TRPML1 agonist 0.7, gsp agonist -1.6%[15.4 µM], gsp antagonist 7.0% and Menin MLL FP FL 0.6.
O=C(Nc1cccc(NC(=O)c2ncn[nH]2)c1)c1cccc(Cl)c1 was read as TRPML1 blocker 11.4, ClpP mod -1.3%, TRPML1 agonist 0.4, gsp agonist 12.8%[15.4 µM], gsp antagonist 0.1% and Menin MLL FP FL 0.5.
For CN(C(=O)CSc1nnc(-c2ccccc2)o1)c1c(N)n(Cc2ccccc2)c(=O)[nH]c1=O the results were TRPML1 blocker -4.8, TRPML1 agonist -0.7, gsp agonist -1.6%[15.4 µM], gsp antagonist 14.8% and Menin MLL FP FL -0.6.
`CCCNC(=O)Cc1c(OC)ccc2cc(Br)ccc12` gave TRPML1 blocker 25.1, ClpP mod -2.1%, TRPML1 agonist 3.5, gsp agonist inconclusive, gsp antagonist -0.5% and Menin MLL FP FL 7.0.
Screening C=CCN1C(=O)C2(OCCCO2)c2cccc(Cl)c21 returned TRPML1 blocker 19.3, TRPML1 agonist 1.6, gsp agonist -0.7%, gsp antagonist -0.4% and Menin MLL FP FL -1.9.
Screening Cc1cccc(Cn2c(=O)n(Cc3ccc(C(=O)NC4CCN(Cc5ccccc5)CC4)cc3)c(=O)c3ccccc32)c1 returned TRPML1 blocker -6.1, ClpP mod -4.4% and TRPML1 agonist 1.1.
`COC(=O)Nc1nnc(Cc2ccc(OC)cc2)s1` gave TRPML1 blocker 5.9, ClpP mod 0.7%, TRPML1 agonist -0.4, gsp agonist -15.2%, gsp antagonist 2.1% and Menin MLL FP FL 1.0.
For COc1cc(-c2ccc3c(=O)c4ccccc4n(C)c3c2)cc(OC)c1OC the results were TRPML1 blocker -4.5, ClpP mod 4.0%, TRPML1 agonist 0.1, gsp agonist inconclusive, gsp antagonist -4.3% and Menin MLL FP FL -0.7.
COC(=O)CNC(=O)c1cccc(F)c1 was read as TRPML1 blocker 0.0, ClpP mod 0.4%, TRPML1 agonist 0.5, gsp agonist -52.8%[inhibitor], gsp antagonist 0.0% and Menin MLL FP FL -4.8.
`CCOC(=O)c1sc(NC(=O)CCN2C(=O)C3CCCCC3C2=O)cc1C` (configuration not stated) gave TRPML1 blocker -8.6, ClpP mod -4.9%, TRPML1 agonist 0.3, gsp agonist -29.6% and gsp antagonist -2.0%.
For COc1cccc(-c2nc(CS(=O)(=O)CC(=O)NC3CCCC3)c(C)o2)c1 the results were TRPML1 blocker -17.3, ClpP mod -7.4%, TRPML1 agonist -0.7, gsp agonist 26.0%, gsp antagonist 2.4% and Menin MLL FP FL 2.0.
For COCCNC(=O)Cn1cc(S(=O)(=O)Cc2ccccc2Cl)c2ccccc21 the results were TRPML1 blocker 0.9, ClpP mod 2.3% and TRPML1 agonist -0.1.
`COc1ccc(CCNC(=O)CN(c2ccccc2OC)S(=O)(=O)c2ccc(C)cc2)cc1` gave TRPML1 blocker -9.3&-14.8, ClpP mod -0.5%&-4.8%, TRPML1 agonist 0.3&1.2, gsp agonist 22.4%, gsp antagonist -25.8% and Menin MLL FP FL -2.9.
For CC(=O)Nc1ccc(NC(=O)C(C)n2c3ccccc3c3nc(=O)cc(C)n32)cc1 (configuration not stated) the results were TRPML1 blocker 8.4, TRPML1 agonist -0.6, gsp agonist 5.2%[15.4 µM], gsp antagonist -54.1% and Menin MLL FP FL -10.2.
For O=C(O)Cc1ccc(NS(=O)(=O)c2ccccc2Br)cc1 the results were TRPML1 blocker -1.4, ClpP mod -3.8%, TRPML1 agonist 0.6, gsp agonist 14.3%, gsp antagonist 10.4% and Menin MLL FP FL 6.1.
Screening CCc1cc(OCCN2C(=O)NC(C)(C)C2=O)ccc1Cl returned TRPML1 blocker -9.8, ClpP mod -0.1%, TRPML1 agonist -0.4, gsp agonist 0.0%, gsp antagonist -18.6% and Menin MLL FP FL 4.2.
`CCNC(=O)C(=O)NCc1ccncc1` gave TRPML1 blocker 17.9, TRPML1 agonist 0.4, gsp agonist -12.8%, gsp antagonist 6.2% and Menin MLL FP FL -0.2.
`CCOc1ccc(OCC)c(NS(=O)(=O)c2ccc3c(c2)CCN3C(=O)C2CCC2)c1` gave TRPML1 blocker 14.4&-7.9, ClpP mod 1.5%&1.0%, TRPML1 agonist -0.3&0.4, gsp agonist -14.8%, gsp antagonist -3.5% and Menin MLL FP FL -0.3.
Screening Cc1cccc(NC(=S)N(CCN(C)C)Cc2cc3cc(C)cc(C)c3[nH]c2=O)c1 returned TRPML1 blocker -7.6, ClpP mod 2.2%, TRPML1 agonist 0.1, gsp agonist 4.7%, gsp antagonist 6.6% and Menin MLL FP FL 2.3.
`C[C@H]1CN[C@@H](CCO)/C1=C\c1ccccc1` gave TRPML1 blocker -2.1, ClpP mod -0.5%, TRPML1 agonist 0.3 and gsp antagonist 18.6%.
Screening Cc1cccc(-n2nc([N+](=O)[O-])c(=NC3CCN(Cc4ccccc4)CC3)n2O)c1 returned TRPML1 blocker -7.8, ClpP mod 1.0%, TRPML1 agonist -0.2, gsp agonist 9.3%, gsp antagonist 15.0% and Menin MLL FP FL -2.9.
COc1ccc(-c2csc(NC(=O)Cn3nc(C)cc3C)n2)cc1 was read as TRPML1 blocker 23.9, ClpP mod 0.1%, TRPML1 agonist 1.4, gsp agonist 15.8%, gsp antagonist -3.7% and Menin MLL FP FL 1.2.
For NC12CC3CC(C1)CC(O)(C3)C2 the results were TRPML1 blocker -7.9, ClpP mod 0.5%, TRPML1 agonist 0.8, gsp agonist -23.6%, gsp antagonist 8.5% and Menin MLL FP FL 3.4.
`COc1ccc(CCN2CC(C(=O)N3CCN(C(C)=O)CC3)CCC2=O)cc1` (configuration not stated) gave TRPML1 blocker -19.4, ClpP mod 0.7%, TRPML1 agonist 0.0, gsp agonist -13.3%[15.4 µM] and gsp antagonist 16.8%.
For Cc1ccc(N(CC(=O)Nc2cc(C)ccc2C)S(=O)(=O)c2c(C)noc2C)cc1 the results were TRPML1 blocker 35.2, ClpP mod -1.8% and TRPML1 agonist 0.0.
Screening Cc1ccc(C)c(OCCC(=O)Nc2cccc(S(=O)(=O)NC3=NCCCCC3)c2)c1 returned TRPML1 blocker -8.8, ClpP mod -2.7%, TRPML1 agonist 3.5, gsp agonist -8.1% and gsp antagonist -24.9%.
For Cc1nn(C(C)C(=O)NCCCN2CCCCC2C)c(=O)c2c1sc1ccccc12 (configuration not stated) the results were TRPML1 blocker 4.0, ClpP mod 4.6%, TRPML1 agonist 0.2, gsp agonist 3.2% and gsp antagonist 3.8%.
COc1ccc(NC(=S)Nc2ccc3nccnc3c2)cc1 was read as TRPML1 blocker -4.5, ClpP mod -2.9%, TRPML1 agonist -0.3, gsp agonist 2.5%, gsp antagonist 6.8% and Menin MLL FP FL -2.9.
COc1ccc(COC(=O)C2=C(C)NC(=O)NC2c2ccccc2OC(C)C)cc1 (configuration not stated) was read as TRPML1 blocker 8.0, ClpP mod -0.4%, TRPML1 agonist -0.6, gsp agonist 1.3%[15.4 µM], gsp antagonist -4.0% and Menin MLL FP FL 3.6.
`CC(C)(OC(=O)c1ccc(C#N)cc1)c1cc2ccccc2c(=O)o1` gave TRPML1 blocker -0.2, ClpP mod -2.6%, TRPML1 agonist 1.1 and gsp antagonist -18.1%.
